High-throughput results: PubChem BioAssay, Broad Institute
Tg IFNy HTS = T. gondii growth inhibition with IFN-gamma, primary screen, cell-based. Toxoplasma gondii growth in IFN-gamma-treated host cells; stronger effect = lower value; reference of the scale not given here. activity change, negative = inhibition, %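 (about 20 µM by stock and volumes)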. hit rate 3.8% among 69,000;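 active = below -70%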;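 also: host cells are HeLa cells infected with Toxoplasma gondii; parasite growth read as luciferase light; one replicate is shown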
* = called active by the depositor; i = inactive; & = joins results of further samples; ! = not confirmed by another sample. A portion of the library; rates above refer to the full screens.

Sample of the layout, 7 compounds:
canonical_smiles,Tg IFNy HTS
CCC(CC(=O)NCc1c(C)n[nH]c1C)c1c[nH]c2ccccc12 (stereo not given),29
COC(=O)C[C@@H]1CC[C@@H]2[C@H](COc3ccc(NS(=O)(=O)c4ccc(C)cc4)cc3C(=O)N2C)O1,1
COc1ccc(OC)c(NC(=O)Cn2c(=O)cc(C(=O)N3CCCC3)c3ccccc32)c1,2
COc1cccc(NC(=O)c2c(O)c3cccnc3n(-c3ccc(F)cc3)c2=O)c1,114
CO[C@@H]1CCN(Cc2cccc(C)n2)[C@H]2CN(Cc3ccncc3)C[C@@H]12,1
C/C=C/c1ccccc1[C@H]1[C@@H](C#N)N(c2nc(CC)cs2)[C@H]1CO,5
CCOC(=O)CSC1=Nc2ccccc2C2=NC(CCC(=O)NCc3ccc(OC)cc3)C(=O)N12 (stereo not given),9

All compounds of this part, from the start:
canonical_smiles,Tg IFNy HTS
CCC(CC(=O)NCc1c(C)n[nH]c1C)c1c[nH]c2ccccc12 (stereo not given),29
COC(=O)C[C@@H]1CC[C@@H]2[C@H](COc3ccc(NS(=O)(=O)c4ccc(C)cc4)cc3C(=O)N2C)O1,1
COc1ccc(OC)c(NC(=O)Cn2c(=O)cc(C(=O)N3CCCC3)c3ccccc32)c1,2
COc1cccc(NC(=O)c2c(O)c3cccnc3n(-c3ccc(F)cc3)c2=O)c1,114
CO[C@@H]1CCN(Cc2cccc(C)n2)[C@H]2CN(Cc3ccncc3)C[C@@H]12,1
C/C=C/c1ccccc1[C@H]1[C@@H](C#N)N(c2nc(CC)cs2)[C@H]1CO,5
CCOC(=O)CSC1=Nc2ccccc2C2=NC(CCC(=O)NCc3ccc(OC)cc3)C(=O)N12 (stereo not given),9
CCOc1ccc(CC(=O)NCCc2sc(-c3cccc(F)c3)nc2C)cc1,-44
CC(C)C[C@H]1CN(C(=O)c2ccn(C)c(=O)c2)CC[C@@]1(C)O,-2
COc1ccc(NC(=O)c2cc(OCCCN(C)C)nn2Cc2ccccc2)cc1,-3&10
CCc1ccc2oc(=O)cc(CN3CCN(Cc4nc(-c5ccccc5C)oc4C)CC3)c2c1,1
CNC(=O)c1cc(=O)n(CC(=O)Nc2cc(C)ccc2C)c2ccccc12,-11
Cc1nonc1C1CCCN1C(=O)c1cccc2ccnn12 (stereo not given),-2
Cn1c(=O)c2c3oc(-c4ccc(Cl)c(Cl)c4)nc3c(=O)n(C)c2n(C)c1=O,-4
CC(C)C(=O)N1Cc2nc(C(=O)NC3CCCC3)oc2C1,37
CN(C)CCN(Cc1ccsc1)C(=O)C1CCCN(C(N)=O)C1 (stereo not given),-4
CC(C)(C)c1ccc(C(=O)NCc2ccccc2-n2ccnc2)c(=O)[nH]1,-18
COCc1cc(CN2CCCN(c3ccccc3)CC2)ccc1OC,11
C[C@@H](NC(=O)/C(C#N)=C\c1ccc(O)c(O)c1)c1ccccc1,14
S=C(Cc1cccc2c1[nH]c1ccc(Br)cc12)N1CCOCC1,12
Cc1nc(CCNC(C)Cn2cncn2)sc1C (stereo not given),-2
CCCc1cc(CN(C)Cc2ccc(O)c(C)c2)[nH]n1,2
CS(=O)(=O)NCC1CCN(Cc2cccc3c2OC(F)(F)O3)C1 (stereo not given),-5
CCN1CCCC1CN1CNC(=S)NC1 (stereo not given),21
C[C@H](CO)N1C[C@H](C)[C@H](CN(C)C(=O)Cc2ccccn2)Oc2ncc(-c3cccc(C(=O)N(C)C)c3)cc2C1=O,241
Cc1nn(-c2ccccc2)c(C)c1-c1ccnc(NCc2cnc3ccccn23)n1,-83*
Cc1cc(NC(=O)C2CCCCC2)n(-c2ncnc3c2cnn3-c2ccc(F)cc2)n1,22
CCc1cnc(N2C[C@H]3C[C@H](C(=O)NC(C)C)[C@@H](C2)O3)nc1,1
Cc1ccc(CN2CC[C@H]3OCC[C@]3(C(=O)N3CCCO3)C2)o1,-1
CCCNC(=O)N1CC(=O)N2[C@H](C1)[C@@H](c1ccc(C#Cc3cccc(OC)c3)cc1)[C@@H]2CO,-53
CCOC(=O)C1CC(=O)C(C(=O)OCC)CC1=O (stereo not given),-48
Cc1ncnc2c1CCN(C(=O)CCc1ccccc1)CC2,67
CCOc1ccc(-c2nc(Cn3c(=O)c4c(C)cc(C)nc4n(C)c3=O)c(C)o2)cc1,6
O=C(NCCc1csc(-c2ccc(Cl)cc2)n1)C1CCCC1,-42
Cc1ccn2c(C(=O)N3CCC4(CCOCC4)CC3)c(C)nc2c1,-7
COCCN1CCCC(O)(CN2CCCN(c3ncccn3)CC2)C1=O (stereo not given),-1
CCOCc1noc2c1CN(Cc1nccn1C)CC2,3
Clc1ccc2nc3c(c(-c4ccccc4)c2c1)CCCCCCCCCC3,31
COc1cc(OC)cc(C(=O)N2CCC3(CC2)Nc2cccnc2NC3=NC2CCCC2)c1,-15
Cc1ccc(-c2nnc(-c3nc(N4CCc5ccccc54)c4ccccc4n3)o2)cc1,306
C=C1C2(C(=O)N(Cc3cccnc3)Cc3ccccc3OC)CCC(C2)C1(C)C (stereo not given),-6
CN1C(=O)c2cc(NS(C)(=O)=O)ccc2OC[C@H]2O[C@@H](CC(=O)NCc3ccccc3)CC[C@H]21,-5
C[C@@H]1CN([C@@H](C)CO)C(=O)c2cc(NC(=O)Nc3cccc4ccccc34)ccc2O[C@@H]1CN(C)S(=O)(=O)c1cccs1,31
CSc1cccc(NC(=O)CN2CCC3(CC2)N=C(c2cccc(F)c2)C(=O)N3)c1,2
CN(C)C(=O)N1CC[C@@H]2C(=O)N(Cc3cccc(F)c3)CCO[C@H]2C1,2
Cc1cc(S(=O)(=O)NCC2CCN(C(=O)OC(C)(C)C)CC2)c(C)o1,-39
O=C(c1cccnc1)N1CC2(C1)[C@@H](c1ccccc1)[C@@H](CO)N2C(=O)CC1CC1,-23
COC(=O)[C@@H]1C[C@@H](NC(=O)c2ccc3cccnc3n2)CN1C,-41
Cc1cccc2nc(Cn3c4ccccc4c4nc5n(c(=O)c43)CCS5)cc(=O)n12,24
O=S(=O)(c1ccc(F)cc1)N1CC[C@H]2[C@@H]1CCN2c1ncccn1,-3

Four entries from above, field by field.
SMILES: CN(C)C(=O)N1CC[C@@H]2C(=O)N(Cc3cccc(F)c3)CCO[C@H]2C1
  Tg IFNy HTS: 2
SMILES: COC(=O)[C@@H]1C[C@@H](NC(=O)c2ccc3cccnc3n2)CN1C
  Tg IFNy HTS: -41
SMILES: O=C(c1cccnc1)N1CC2(C1)[C@@H](c1ccccc1)[C@@H](CO)N2C(=O)CC1CC1
  Tg IFNy HTS: -23
SMILES: CN1C(=O)c2cc(NS(C)(=O)=O)ccc2OC[C@H]2O[C@@H](CC(=O)NCc3ccccc3)CC[C@H]21
  Tg IFNy HTS: -5

(cont.)
canonical_smiles,Tg IFNy HTS
CC(C)CC#Cc1ccc([C@H]2[C@@H](CO)N3C(=O)CN(C(=O)c4cccc(F)c4)C[C@H]23)cc1,-39
COCCN1C[C@H]2[C@@H](OC)CCN(C(=O)c3cc(C4CC4)on3)[C@H]2C1,-26
Cc1cc(S(=O)(=O)NCCc2csc(-c3ccc(F)cc3)n2)ccc1F,-46
CCCSCCCNC(=O)c1nc(Nc2ccc(C)cc2)c2ccccc2n1,1
COCC#Cc1ccc([C@@H]2[C@@H](CO)N3C(=O)CN(C(=O)c4ccncc4)C[C@@H]23)cc1,-47
O=C(Nc1nc(-c2ccccc2F)cs1)C1CC(=O)N(Cc2ccncc2)C1 (stereo not given),8
CC(=O)OCC(=O)[C@@]1(OC(C)=O)[C@@H](C)CC2C3C[C@H](F)C4=CC(=O)C=C[C@]4(C)[C@@]3(F)[C@@H](O)C[C@@]21C (stereo not given in full),6&3
Cc1ccccc1S(=O)(=O)N1C[C@@H]2N[C@H](C1)C2c1ccc(-c2cccc(C#N)c2)cc1 (stereo not given in full),-71*!
O=C(Cn1ncc2c(N3CCCCC3)ncnc21)Nc1ccccc1Br,14
Cc1ccc(CN2CCN(Cc3cn[nH]c3C3CCCCC3)CC2CCO)cc1 (stereo not given),17
COc1cccc(CNC(=O)c2ccc(-c3nc(CN4CCc5ccccc54)c(C)o3)cc2)c1,85
Cc1nc(-c2cccc(F)c2)sc1CCNC(=O)c1ccccc1F,36
CCN1C(=O)CCc2cc(NC(=O)Cc3ccc(OC)c(Cl)c3)ccc21,39
COC(=O)c1ccc(Cl)cc1NS(C)(=O)=O,41
CN(C)C1CCN(C(=O)c2cccs2)C(C(=O)O)C1 (stereo not given),-2
Cc1nonc1CN(C)C(=O)c1ccccc1NCc1cccs1,-10
O=C(OCCn1ncc2ccccc2c1=O)c1ccc(OC(F)(F)F)cc1,55
Cc1noc(C)c1NC(=O)Nc1ccc2c(c1)C(=O)N([C@@H](C)CO)C[C@@H](C)[C@H](CN(C)S(=O)(=O)c1ccc(F)cc1)O2,-18
CCn1cc(CN2CCC(O)(c3ccc(C)cc3)CC2)cn1,55
CSc1ccc(CNC(=O)COc2nc(C)nc3ccccc23)cc1,-24
COC(=O)CCCCC1SCC(NC(=O)c2ccccc2)C1OC(C)=O (stereo not given),120
CN1CCC2(CCCN(Cc3cc4n(n3)CCCNC4)C2)C1 (stereo not given),0
COc1ccc2c(c1)NC1(CCN(C(=O)Nc3cc(Cl)ccc3OC)CC1)c1cccn1-2,i
COCC1CCCN(C(=O)c2ccc(-c3cccnc3)nc2)C1 (stereo not given),4
COc1ccnc(Cn2c(C3CCNCC3)cc3cccnc32)c1OC,32
CO[C@H]1CN(C)C(=O)c2ccc(NS(=O)(=O)CC(F)(F)F)cc2OC[C@H](C)N(C(=O)NC(C)C)C[C@H]1C,61
CCN1c2ccc(C)cc2C(=O)NC12CCN(C(=O)c1ccc(F)c(Cl)c1)CC2,-50
CNc1cc(-c2cc(C(C)C)nc(C(F)(F)F)n2)c2cc[nH]c2n1,-84*
COc1cc(CNC(=O)c2ccc(C#CC(C)(C)O)o2)ccc1O,-2
O=C(Nc1nnc(CCc2ccccc2)s1)c1cnc(-c2ccc(Cl)cc2)nc1,-6
O=C(Nc1cnn(-c2ncncc2N2CCSCC2)c1)NC1CCCCC1,18
O=C(CCc1ccccc1)NCCc1csc(-c2ccc(F)cc2)n1,34
CN(Cc1cn[nH]c1-c1ccccc1)C(=O)c1cccc(C#CC(C)(C)O)c1,-5
CCN(CC1CCOCC1)C(=O)C1CCCN(C(=O)COC)C1 (stereo not given),-4
C=Cn1cc(CN2CCn3nc(-c4ccc(F)cc4)nc3C2)c(C)n1,29
CN(C)CCNC(=O)c1nc2c(o1)CN(Cc1ccccc1)C2,5
CCC/C=C/c1cncc(C(=O)N2CCOCC2)n1,3
CC(=O)N1CCOCC1c1nccc(N2CCOCC2)n1 (stereo not given),17
Cc1nccn1CC1CCCN(C(=O)CSCc2ccccc2Cl)C1 (stereo not given),51
O=C(CSc1nc(-c2ccccc2)nc2ccc(Cl)cc12)Oc1ccccc1,-29
Cc1oc(-c2ccc(-c3ccccc3)cc2)nc1CN1CCCCC1CO (stereo not given),55
Cc1cccc(NC(=O)Nc2ccc(-c3nc(-c4ccc(C)cc4C)co3)cc2)c1,-31
OC1CCCN(c2ccnc(N3CCOc4ccccc4C3)n2)C1 (stereo not given),26
CCN(CC)c1ncnc2c1cnn2CC(=O)NCCC(C)C,93
C=CCn1c(SCC(=O)Nc2c(C#N)cnn2-c2ccccc2)nnc1-c1ccncc1,32
Cc1cc(C)nc(NCCCC(=O)O)n1,25
Fc1cccc(NC2COC3(CCN(Cc4ccsc4)C3)C2)c1 (stereo not given),66
CC(=O)Nc1ccc(S(=O)(=O)Oc2ccc(Cl)c3cccnc23)cc1,-15
Cn1cccc1C(=O)N1Cc2nccn2CC(CN2CCCC2)C1 (stereo not given),4
Cc1c(CN2CCCC2c2ccccn2)[nH]c2ccc(F)cc12 (stereo not given),1

Further results
canonical_smiles,Tg IFNy HTS
FC(F)(F)c1cccc(-c2noc(C3CCN(Cc4ccsc4)C3)n2)c1 (stereo not given),19
CC(C)N1CCc2ncn(C(C)C)c2C1C(=O)NCCc1ccccc1 (stereo not given),7
Cc1ccc(C(=O)N(C)CC2Cc3ccccc3O2)cc1NC(=O)C1CC1 (stereo not given),-4
O=c1c(O)c(-c2ccccc2)oc2cc(O)cc(O)c12,67
CCN1[C@@H]2Cn3c(ccc(-c4ccc(F)cc4)c3=O)[C@H]1[C@@H](C(=O)Nc1nccs1)[C@@H]2CO,2
Cc1ccc(CN2CCC3(CC(NS(=O)(=O)C4CC4)C3)C2)cc1 (stereo not given),-22
C[C@@H](O)C#Cc1ccc([C@H]2[C@H](CO)N3CCCCN(C(=O)c4ccc5c(c4)OCO5)C[C@@H]23)cc1,11
C=CC(=O)Nc1cccc(Sc2nc(Nc3ccc(N4CCN(C)CC4)cc3)ncc2Cl)c1,-82*
Cc1ccc(S(=O)(=O)NCCc2sc(-c3ccc(Cl)cc3)nc2C)c(C)c1,28
CSc1ccc(C2c3[nH]c4ccccc4c3CCN2C(=O)c2ccccc2C)cc1 (stereo not given),159
CC(=O)CCc1c(C)c2cccc(C)c2[nH]c1=O,25
Cc1nc2c(c(N(C)C)n1)CCN(S(=O)(=O)c1c(C)nn(C)c1Cl)C2,-7
CCn1c(C2CCCN(c3ncnc4sc(C)cc34)C2)n[nH]c1=O (stereo not given),-3
CC(C)c1cc(C2CCCN2C(=O)Cn2nc(C(F)(F)F)c3c2CCCC3)on1 (stereo not given),2
Cc1ccc(CN2CCC3(CC2)COCCN(c2ncccn2)C3)s1,-2
CN(C)C(=O)N1C[C@@H]2COC[C@]2(COCC2CCOCC2)C1,0
COc1ccc(CN2CCC(C(=O)c3ccc(OC)cc3)C2c2ccc(F)cc2)cc1 (stereo not given),123
CCCC(=O)N1CC2(C1)CN(S(=O)(=O)c1ccc(C)cc1)[C@@H](CO)c1[nH]c3cc(OC)ccc3c12,-44
